High-throughput results: PubChem, Southern Research Institute
Mtb H37Rv: Mycobacterium tuberculosis H37Rv growth inhibition, putative kinase inhibitor library, confirmatory dose response (AID 2842); M. tuberculosis H37Rv growth inhibition; higher % means a stronger effect; some inactives read as strong as hits; one-dose inhibition, % at 10 µg/mL; IC90 in µg/mL for titrated hits; 24,000 compounds, 5.2% hits;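 active means confirmed in a dose series; about a fifth of its hits are not listed in these tables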;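 further: bacteria incubated one week before Alamar blue readout; 0% = bacteria only wells and 100% = bacteria with high antibiotic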
The depositor's hits bear a star. Only part of the results is shown; count on the stated rates, not on these rows.

A first look, 4 compounds:
compound	Mtb H37Rv
CC1(C)COc2ccc(NC(=O)Cc3cccs3)cc2NC1=O	6%
Cc1sc(NC(=O)c2ccc(S(=O)(=O)N3CCCC3)cc2)c(-c2nc3ccccc3s2)c1C	-12%
CC(=O)Nc1ccc(S(=O)(=O)NCc2ccc(Cl)cc2)cc1	20%
O=S1(=O)N=CNc2ccc(S(=O)(=O)Nc3ccccc3)cc21	-15%

This part in full, repeating the preview:
compound	Mtb H37Rv
CC1(C)COc2ccc(NC(=O)Cc3cccs3)cc2NC1=O	6%
Cc1sc(NC(=O)c2ccc(S(=O)(=O)N3CCCC3)cc2)c(-c2nc3ccccc3s2)c1C	-12%
CC(=O)Nc1ccc(S(=O)(=O)NCc2ccc(Cl)cc2)cc1	20%
O=S1(=O)N=CNc2ccc(S(=O)(=O)Nc3ccccc3)cc21	-15%
Oc1[nH]c2ccccc2c1N=Nc1nc(-c2ccc(Br)cc2)cs1	25%
CCCc1cc2c(=O)c(-c3ccccn3)coc2cc1OC	9%
CCOc1ccc2c(c1)c(=O)c(C(=O)c1ccc(F)cc1)cn2Cc1ccc(F)cc1	2%
CCOC(=O)c1nn(-c2ccc(C)cc2)c(=O)c2c(NC(=O)c3ccc(C)c([N+](=O)[O-])c3)scc12	-10%
CCC(=O)NCCc1nc2ccccc2n1Cc1ccc(Cl)cc1	10%
Cc1cc(C)c2c(=O)[nH]c(SCC(=O)Nc3ccccc3)nc2n1	-17%
Cc1cc(C)cc(Nc2nc(Nc3ccc(F)cc3)nc(N3CCOCC3)n2)c1	11µg/mL*
COc1ccccc1N1C(=O)N(c2ccccc2C)C2CS(=O)(=O)CC21 (stereo not drawn)	6%
O=C(Cc1cc(=O)[nH]c(=O)[nH]1)N1CCCCC1	-4%
COc1ccc(Cn2cc(C(=O)c3ccc(F)cc3)c(=O)c3cc(OC)ccc32)cc1	6%
CC(=O)Nc1ccc(NC(=O)c2cnc3c(c(C)nn3-c3ccccc3)c2Cl)cc1	7%
CN(C)S(=O)(=O)c1ccc(C(=O)NC2CC(=O)N(c3cccc(F)c3)C2)cc1 (stereo not drawn)	1%
CCc1ccc(NC(=O)CN2C(=O)C(=O)c3ccccc32)cc1	-1%
CCOc1ccc(NC2CC(=O)NC2=O)cc1 (stereo not drawn)	66%
O=c1[nH]ncc(N/N=C\c2ccc(O)cc2)c1Cl	4%
O=C(NCCc1ccc(Cl)cc1)C(=O)Nc1nccs1	10%
O=[N+]([O-])c1cc2c(cc1N=Nc1ccc(O)c3ccccc13)OCCO2	3%
O=C1NC(=S)N/C1=C\c1cc([N+](=O)[O-])ccc1OCc1ccccc1Cl	13%
COCC(=O)Nc1c(C(=O)Nc2ccc3c(c2)OCCO3)oc2ccccc12	-5%
COc1cccc(N2CC(NC(=O)c3ccccc3C(F)(F)F)CC2=O)c1 (stereo not drawn)	3%
COc1ccc(-n2c(=O)[nH]c3c(C(N)=O)nc(-c4ccc(C(C)C)cc4)nc32)cc1	4%
Cc1sc2nc(SC/C=C/c3ccccc3)[nH]c(=O)c2c1C	-6%
Cc1n[nH]c(=O)nc1Nc1cccnc1	4%
O=C(NCCO)C(=O)Nc1cc2c3c(c1)CCC(=O)N3CCC2	1%
Cc1ccc(N2CC(NC(=O)NCC3CCCO3)CC2=O)cc1 (stereo not drawn)	-4%
CC(C)N1CCc2c(sc(NC(=O)c3ccc(S(=O)(=O)N4CCCC4)cc3)c2C#N)C1	3%
COc1cc(C(=O)Nc2nc3c(cc4c5c(cccc53)CC4)s2)cc(OC)c1OC	-9%
N#Cc1ccc(C(=O)Nc2nnc(-c3ccc(Br)cc3)o2)cc1	7.4µg/mL*
CC(C)N1CCc2c(sc(NC(=O)c3ccc(S(=O)(=O)N(C)C)cc3)c2-c2nc3ccccc3s2)C1	0%
COc1cccc2sc(Nc3nc4c(s3)CC(C)CC4)nc12 (stereo not drawn)	5.8µg/mL*
O=C(Nc1cccc(C(F)(F)F)c1)c1cnc2n(c1=O)CCS2	-10%
Cc1nc2c(ccc3nc(Nc4nc5cc6c(cc5s4)OCCO6)sc32)s1	79%
Cc1cc(=O)[nH]c2c(C)cc(S(=O)(=O)Nc3ccccc3)cc12	3%
Cc1cccc(Cn2c(SCc3c(F)cccc3Cl)nc3c2c(=O)n(C)c(=O)n3C)c1	-1%
CC(C)c1ccc(Nc2ncnc(N)c2[N+](=O)[O-])cc1	2%
COc1ccc(S(=O)(=O)Nc2ccncc2)cc1N(C)S(=O)(=O)c1ccccc1	-20%
Cc1ccccc1C(=O)Oc1cccc(Nc2ncnc3ccccc23)c1	8%
COc1ccc(OC)c2[nH]c(=O)c(CCNC(=O)c3ccccc3)cc12	3%
O=C(O)CSc1ccc2nnc(-c3ccccn3)n2n1	-10%
CCS(=O)(=O)c1cccc(C(=O)Nc2nc3ccc([N+](=O)[O-])cc3s2)c1	1%
CCC1CCCCN1S(=O)(=O)c1ccc(C(=O)Nc2nc3c(s2)CC(C)CC3)cc1 (stereo not drawn)	-4%
CCCC(=O)Nc1nnc(-c2cc(Cl)ccc2Cl)o1	78%
COc1cccc(C2C3=C(CCCC3=O)Nc3nc(SC(C)C)[nH]c(=O)c32)c1 (stereo not drawn)	12%
Cc1ccccc1-n1c(O)c(C2=c3cc(Br)ccc3=NC2=O)sc1=S	4%
Cn1c(=O)c2c(SCC(=O)NCc3ccccc3)nc(-c3ccc([N+](=O)[O-])cc3)nc2n(C)c1=O	0%
Cc1ccc(S(=O)(=O)N2CCC(C(=O)Nc3nnc(-c4ccccc4)o3)CC2)cc1	32%

Entries above that contain a cyano group:
compound	Mtb H37Rv
CC(C)N1CCc2c(sc(NC(=O)c3ccc(S(=O)(=O)N4CCCC4)cc3)c2C#N)C1	3%
N#Cc1ccc(C(=O)Nc2nnc(-c3ccc(Br)cc3)o2)cc1	7.4µg/mL*

More records
compound	Mtb H37Rv
COCCNC(=O)c1sc2ncnc(N3CCN(c4ccc(OC)cc4)CC3)c2c1C	5%
O=C(CSc1nnc2sc3ccccc3n12)Nc1ccc(-c2ccccc2)cc1	-4%
O=C(CN1C(=O)S/C(=C\c2ccc(Cl)cc2)C1=O)Nc1ccc(C(=O)O)cc1	-10%
CC(=O)Nc1ccc(NC(=O)CSc2nnc(NC(=O)Nc3ccc(F)cc3)s2)cc1	-14%
CCOC(=O)c1nn(-c2ccc(OC)cc2)c(=O)c2c(NC(=O)CCl)scc12	8%
CC1Cc2nc(SCC(=O)Nc3nc4ccccc4s3)n(C)c(=O)c2S1 (stereo not drawn)	2%
CC1C(=O)N2CCCc3cc(NC(=O)C(=O)NCCc4c[nH]c5ccccc45)cc1c32 (stereo not drawn)	10%
COc1ccc(C(c2sc3ncnn3c2O)N2CCC(Cc3ccccc3)CC2)cc1OC (stereo not drawn)	-5%
O=C(O)CCCn1c(O)c(C2=c3cc(Br)ccc3=NC2=O)sc1=S	-5%
CC(=O)c1cccc(NC(=O)c2sc3nc4c(cc3c2N)C(=O)CCC4)c1	3%
Cc1ccc(/C(=N/CS(=O)(=O)c2ccccc2)NC(=S)NC2CCS(=O)(=O)C2)cc1 (stereo not drawn)	-9%
CCOc1ccc(NC(=O)c2sc3nc(C)cc(C)c3c2N)cc1	-8%
COc1cccc(-c2ccc3nnc(SCC(=O)Nc4nnc(C)s4)n3n2)c1	2%
N#Cc1c(NC(=O)c2ccc(S(=O)(=O)N3CCOCC3)cc2)sc2c1CCN(Cc1ccccc1)C2	10%
CCOC(=O)c1nn(-c2ccc(C(F)(F)F)cc2)c(=O)c2c(NC(=O)COc3ccc4ccccc4c3)scc12	-6%
CC(=O)c1sc(NC(=O)c2ccc(F)cc2)nc1-c1ccccc1	9%
COc1ccc(C(=O)Nc2nnc(-c3ccccc3C)s2)cc1	5%
CC(=O)NC(=O)c1cc2cc(Br)ccc2oc1=Nc1ccc(OC(F)(F)F)cc1	37%
Cc1ccc(C2=N/C(=C/c3ccc([N+](=O)[O-])cc3)C(=O)O2)cc1	-4%
COc1cc2c(=O)c(C(=O)c3ccccc3)cn(Cc3ccc(C)cc3)c2cc1OC	5%
COc1cccc(NC(=O)Cc2csc(NC(=O)C3CC3)n2)c1	-2%
CCCCOC(=O)c1ccc(NC(=O)NC2CC(=O)N(c3ccc4c(c3)OCCO4)C2)cc1 (stereo not drawn)	28%
Nc1nc(SCC(=O)Nc2cc(C(F)(F)F)ccc2Cl)[nH]c(=O)c1NC(=O)c1ccccc1F	-4%
CCOC(=O)c1nn(-c2ccc(OC)cc2)c(=O)c2c(NC(=O)C(c3ccccc3)c3ccccc3)scc12	2%
CN(C)S(=O)(=O)c1ccc(C(=O)N2CC(=O)Nc3ccc(Br)cc3C2c2ccccc2)cc1 (stereo not drawn)	35µg/mL*

> O=C(CCCc1ccccc1)Nc1c(C(=O)Nc2ccc([N+](=O)[O-])cc2)oc2ccccc12
  Mtb H37Rv: 13%

> Cc1nc2ncccc2c(=O)n1-c1ccc(NC(=O)c2cccc3ccccc23)cc1
  Mtb H37Rv: -1%

> COc1ccc(Cc2cnc(NC(=O)/C=C/c3ccccc3)s2)cc1
  Mtb H37Rv: -8%

> NNC(=O)c1ccc(-c2ccccc2Cl)o1
  Mtb H37Rv: 4µg/mL*

> COc1cccc(C(=O)COC(=O)c2cc3cccc(OC)c3oc2=O)c1
  Mtb H37Rv: -4%

> CC(C)c1ccc(NS(=O)(=O)c2cc3c4c(c2)CCN4C(=O)CC3)cc1
  Mtb H37Rv: 8%

> COc1cc2c(=O)c(C(=O)c3ccc(F)cc3)cn(Cc3ccc(Cl)cc3)c2cc1OC
  Mtb H37Rv: -1%

> COc1ccc(OC)c2sc(NNC(=O)c3c(F)cccc3F)nc12
  Mtb H37Rv: 7%

> CCOC(=O)c1nn(-c2ccccc2)c(=O)c2c(NC(=O)c3ccccc3OCC)scc12
  Mtb H37Rv: -10%

> CCOC(=O)c1nn(-c2ccc(C)cc2)c(=O)c2c(NC(=O)CC3CCCCC3)scc12
  Mtb H37Rv: 0%

Taken from above.
COc1cccc(C(=O)COC(=O)c2cc3cccc(OC)c3oc2=O)c1 in Mtb H37Rv is entered as -4%
COc1cccc(NC(=O)Cc2csc(NC(=O)C3CC3)n2)c1 in Mtb H37Rv is entered as -2%
COc1ccc(C(c2sc3ncnn3c2O)N2CCC(Cc3ccccc3)CC2)cc1OC (stereo not drawn) in Mtb H37Rv is entered as -5%
Cc1n[nH]c(=O)nc1Nc1cccnc1 in Mtb H37Rv is entered as 4%

Going on with the list:
> COc1ccc(NC(=O)C2=C(C)Nc3ncnn3C2c2ccccn2)cc1 (stereo not drawn)
  Mtb H37Rv: -4%

> O=C(Oc1coc(CSc2ncccn2)cc1=O)c1ccc(Cl)cc1Cl
  Mtb H37Rv: -22%

> Cn1c(=O)c2c(nc(NCCN3CCOCC3)n2CCCOc2ccccc2)n(C)c1=O
  Mtb H37Rv: -15%

> COC(=O)Cn1c(=NC(=O)c2cccc([N+](=O)[O-])c2)sc2cc3c(cc21)OCO3
  Mtb H37Rv: -2%

> CCc1nc(SCC(=O)Nc2ccc(C)cc2)c2c(=O)n(C)c(=O)n(C)c2n1
  Mtb H37Rv: -5%

> CCOC(=O)c1[nH]c2ccccc2c1NC(=S)Nc1ccc(F)cc1
  Mtb H37Rv: 4%

> Cc1cccc(/C=N\Nc2cn[nH]c(=O)c2Cl)c1
  Mtb H37Rv: 1%

> Cc1cc(O)c(C(c2ccc3c(c2)OCO3)c2c(O)cc(C)[nH]c2=O)c(=O)[nH]1
  Mtb H37Rv: -3%

> Cc1nc2sc(C(c3ccc(Cl)cc3)N3CCC(C(N)=O)CC3)c(O)n2n1 (stereo not drawn)
  Mtb H37Rv: -5%

> CCOCCn1c(SCCc2ccccc2)nc2c1c(=O)[nH]c(=O)n2C
  Mtb H37Rv: -6%

> CCS(=O)(=O)Nc1cccc(C2=NN(S(=O)(=O)c3ccc(F)cc3)C(c3ccccc3F)C2)c1 (stereo not drawn)
  Mtb H37Rv: 0%

> Cc1ccc(N2C(=O)C3N=NN(CC(=O)Nc4ccccc4Cl)C3C2=O)cc1C (stereo not drawn)
  Mtb H37Rv: -13%

> O=C(Nc1sc2c(c1-c1nc3ccccc3s1)CCCC2)c1ccc(S(=O)(=O)N2CCCC2)cc1
  Mtb H37Rv: -4%

> COc1cc2c3nnc(-c4ccccc4)c-3cn(Cc3ccccc3)c2cc1OC
  Mtb H37Rv: 52%

> Cc1c(C)n2c(SCC(=O)N3CCOCC3)nnc2[nH]c1=O
  Mtb H37Rv: -15%

> CCCCSc1nc2c(c(=O)[nH]1)C(c1ccccc1)C1=C(CCCC1=O)N2 (stereo not drawn)
  Mtb H37Rv: -2%

> COC(CNS(=O)(=O)c1cc2c3c(c1)CCN3C(=O)CC2)OC
  Mtb H37Rv: -7%

> O=C1c2oc3ccc(Cl)cc3c(=O)c2C(c2ccncc2)N1CCc1ccccc1 (stereo not drawn)
  Mtb H37Rv: -2%

> N#Cc1c(NC(=O)CN2C(=O)c3ccccc3C2=O)sc2c1CCCCC2
  Mtb H37Rv: -19%

> Cc1cc2cc(CNC(=O)NC3CCCCC3)ccc2n1C
  Mtb H37Rv: 1%

> Cc1ccnc(SCc2cc(=O)c(OC(=O)c3ccc(Cl)c([N+](=O)[O-])c3)co2)n1
  Mtb H37Rv: -10%

> COc1ccc(-c2csc(NC(=O)COc3ccc(Br)cc3)n2)cc1
  Mtb H37Rv: 11%

> Cc1ccc(N2C(=O)C3N=NN(CC(=O)Nc4cccc(Cl)c4)C3C2=O)cc1Cl (stereo not drawn)
  Mtb H37Rv: -2%

> O=C1CC(NS(=O)(=O)c2cc(F)ccc2F)CN1c1ccccc1 (stereo not drawn)
  Mtb H37Rv: -4%

> O=C(Nc1ccc(Oc2ccccc2)cc1)c1cnc2sccn2c1=O
  Mtb H37Rv: -2%

> Cc1ccc2cc(CCNC(=O)c3ccccc3Cl)c(=O)[nH]c2c1C
  Mtb H37Rv: -6%

> CCc1ccc(C(=O)c2cn(Cc3ccccc3F)c3cc(OC)c(OC)cc3c2=O)cc1
  Mtb H37Rv: 7%

> O=C(/C=C/c1ccccc1Cl)Nc1cccc(O)c1
  Mtb H37Rv: 16%

> Cc1cccc(Cc2cnc(NC(=O)c3cccc(-n4cnnn4)c3)s2)c1
  Mtb H37Rv: 10%
